High-throughput results (PubChem BioAssay)
UCH37 inh = inhibitors of human deubiquitinating enzyme UCH37; purified proteasome/UCH37, Ub-AMC cleavage fluorescence; hit rate 0.33% among 330,000; inhibition, % (concentration not given with the values); Q9Y5K5;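 active means mean of two replicates above 20%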;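 further: 0% = compound-free wells with enzyme and 100% = wells lacking proteasome; stock transfer was 100 nL into about 20 µL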
Target sequence (Q9Y5K5 whole entry, looked up): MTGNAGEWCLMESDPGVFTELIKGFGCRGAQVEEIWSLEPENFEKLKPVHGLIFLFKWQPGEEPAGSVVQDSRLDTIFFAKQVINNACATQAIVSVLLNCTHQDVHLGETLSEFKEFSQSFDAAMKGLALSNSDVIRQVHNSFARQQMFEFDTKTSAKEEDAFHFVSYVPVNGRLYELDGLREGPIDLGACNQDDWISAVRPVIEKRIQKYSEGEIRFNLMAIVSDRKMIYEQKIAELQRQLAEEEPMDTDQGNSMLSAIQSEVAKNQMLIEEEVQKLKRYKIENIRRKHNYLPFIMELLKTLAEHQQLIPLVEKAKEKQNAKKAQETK
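Assay system: Proteasome-bound UCH37. Buffer or medium: pH 7.4 Tris-HCl (50 mM) with ovalbumin, ATP-MgCl2, DTT. Incubation: 30 min preincubation with enzyme, 25 min cleavage at room temperature. Measured by: fluorescence, ex 355 nm, em 460 nm. Read-out basis: percent inhibition. Control set: wells without proteasome as full block, compound-free enzyme plus substrate as uninhibited.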
LANA-H2A inh = blocks KSHV LANA binding to histone H2A/H2B; Q9QR71; cell-free LANA-H2A/H2B peptide, fluorescence polarization; inhibition, % (test concentration not listed); hit rate 0.6% among 320,000; AID 2629; in the data active means inhibition mostly above about 10%, no sharp cut-off; inactive means mostly below about 6.7%;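 further: stock transfer was 7.5 nL into about 10 µL; 0% = median of vehicle wells and 100% = median of positive control wells; one replicate is shown; the record names a cut of 25% in any replicate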
ALR inh = blocks human ALR sulfhydryl oxidase activity. P55789. purified ALR, DTT oxidation, H2O2 HRP-luminol luminescence. inhibition, % (concentration not given with the values). hit rate 3.8% among 290,000;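 active means mean and each replicate at 75% or more; inconclusive means only one of the two met; inactive means neither met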;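 further: stock transfer was 7.5 nL into about 7.5 µL; 0% = neutral wells and 100% = wells with inactivated enzyme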
Target sequence (P55789 whole entry, looked up): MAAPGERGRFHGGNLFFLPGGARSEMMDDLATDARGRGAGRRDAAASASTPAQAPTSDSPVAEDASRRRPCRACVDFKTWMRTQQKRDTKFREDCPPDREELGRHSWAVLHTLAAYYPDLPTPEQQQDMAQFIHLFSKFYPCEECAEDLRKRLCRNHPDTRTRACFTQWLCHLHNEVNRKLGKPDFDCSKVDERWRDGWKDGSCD
E coli growth = blocks Escherichia coli growth; OD600, 23 h; active compounds read low; OD600 absorbance (no concentration beside the values); hit rate 0.21% among 330,000; AID 1053175;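 active means OD600 absorbance below the run mean of sample wells minus 3.6 SD, in any replicate, cut at about 0.56 in these data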;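 further: stock transfer was 300 nL into about 60 µL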
HNF4A DNA FP = change in binding of human HNF4 alpha to DNA; P41235; HNF4a-FITC DNA binding, fluorescence polarization, 1 h; activity change, % at 10 µM; hit rate 0.3% among 360,000; AID 1224865; in the data active means activity change above about 30%, passing the limit was not always enough;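 further: controls were the assay level and a saturating level of protein; the project sought stronger binding though the title names inhibitors; some compounds called inactive have numbers as strong as hits; positive values seem to mean higher polarization but the record does not say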
Target sequence (P41235 whole entry, looked up): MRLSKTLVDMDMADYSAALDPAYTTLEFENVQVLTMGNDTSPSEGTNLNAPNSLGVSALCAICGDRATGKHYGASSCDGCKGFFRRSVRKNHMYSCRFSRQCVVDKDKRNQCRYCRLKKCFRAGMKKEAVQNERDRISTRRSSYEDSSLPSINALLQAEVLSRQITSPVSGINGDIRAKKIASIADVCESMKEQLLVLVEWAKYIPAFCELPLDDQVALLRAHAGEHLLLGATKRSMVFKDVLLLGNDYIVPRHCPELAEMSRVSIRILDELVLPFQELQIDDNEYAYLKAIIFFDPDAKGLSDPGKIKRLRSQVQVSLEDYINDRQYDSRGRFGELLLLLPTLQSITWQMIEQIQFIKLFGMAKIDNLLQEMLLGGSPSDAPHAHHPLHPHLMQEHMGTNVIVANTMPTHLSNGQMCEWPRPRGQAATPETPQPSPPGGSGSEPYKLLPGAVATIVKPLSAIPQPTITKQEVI
FGF22 binding = FGF22 (human) thermal shift binding | hit rate 1.5% among 340,000 | Q9HCT0 | AID 651658 | calls only at 9.99 µM | recombinant FGF22 thermal shift, SYPRO orange fluorescence; percent of sucrose octasulfate shift, DMSO zero;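 active means melting point raised past a set limit in the mean and every replicate; inconclusive means no clear call; three in four hits are not shown here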
Beta2AR agonist = agonists of human beta-2 adrenergic receptor inducing internalization; Am2.2-beta2AR cells, FAP receptor internalization, flow cytometry; reference of the scale not given here; response, % (test concentration not listed); P07550; hit rate 0.43% among 340,000; AID 504454;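 active means response above a set limit, near 3 SD of response in nonfluorescent compounds, cut at about 42% in these data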;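 further: stock transfer was 100 nL into about 11 µL; a reference agonist was the positive control; negative values mostly stem from fluorescent compounds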
Active calls of the source: *; ! = not confirmed by another sample. Some of the compounds tested; the hit share may differ from the screen's.

O=C(CN1CCN(S(=O)(=O)c2ccc(Br)cc2)CC1)N/N=C/c1ccncc1 was read as LANA-H2A inh 1.6, HNF4A DNA FP 4.1, FGF22 binding inactive and Beta2AR agonist -2.
Screening Cc1ccccc1NC(=O)c1cccc(NC(=O)c2ccccc2C(=O)O)c1 returned UCH37 inh -0.7, LANA-H2A inh 3.8, ALR inh -1, E coli growth 0.7, HNF4A DNA FP 2.5, FGF22 binding inactive and Beta2AR agonist -3.
For O=C(Nc1nccs1)c1ccc(-c2ccc(F)cc2)o1 the results were UCH37 inh -4.0, LANA-H2A inh 2.6, ALR inh 34, E coli growth 0.7, HNF4A DNA FP -1.1, FGF22 binding inactive and Beta2AR agonist -13.
Screening O=C(CCNC(=O)C1CCN(S(=O)(=O)c2ccc(F)cc2)CC1)NCc1cccnc1 returned UCH37 inh -1.6, LANA-H2A inh -4.6, ALR inh -7, E coli growth 0.68, HNF4A DNA FP -2.5, FGF22 binding inactive and Beta2AR agonist -1.
Screening O=C(COC(=O)C1(c2ccc(F)cc2)CCCC1)NC1CC1 returned UCH37 inh -0.5, LANA-H2A inh -5.2, ALR inh -16, E coli growth 0.67, HNF4A DNA FP -2.1 and Beta2AR agonist -2.
For CCn1ncc(C2=NOC(C(=O)N3CCC(C(N)=O)CC3)C2)c1C (centres undefined) the results were UCH37 inh 1.1, LANA-H2A inh 0.5, ALR inh -4, E coli growth 0.67, HNF4A DNA FP -0.4 and Beta2AR agonist -4.
CC(=NC1CC1)C1=C(O)c2ccccc2C1=O was read as UCH37 inh 6.5, LANA-H2A inh -5.2, ALR inh -18, E coli growth 0.68, HNF4A DNA FP 0.1 and Beta2AR agonist 2.
Screening O=C1NC(=O)C(CC(=O)N(c2ccccc2)C2(C(=O)NC3CCCC3)CCCCC2)N1 (centres undefined) returned UCH37 inh 2.1, LANA-H2A inh -0.1, E coli growth 0.74, HNF4A DNA FP 2.0 and Beta2AR agonist -2.
`Cc1ccc(Cn2c(=N)c(C(=O)NCC3CCCO3)cc3c(=O)n4ccccc4nc32)cc1` (centres undefined) gave UCH37 inh inactive, LANA-H2A inh -2.7, ALR inh 2, E coli growth 0.69, HNF4A DNA FP 12, FGF22 binding inactive and Beta2AR agonist -5.
CSCCC(NS(=O)(=O)c1ccccc1F)C(=O)NCc1ccncc1 (centres undefined) was read as UCH37 inh 1.6, LANA-H2A inh -1.2, ALR inh 0, E coli growth 0.65, HNF4A DNA FP -3.5, FGF22 binding inactive and Beta2AR agonist -5.
`CC(=O)N(CC(=O)Nc1sc(C)c(C)c1C(N)=O)Cc1ccccc1` gave UCH37 inh 5.6, LANA-H2A inh -0.8, ALR inh 3, E coli growth 0.64, HNF4A DNA FP 0.4, FGF22 binding inactive and Beta2AR agonist -4.
Screening COc1ccc2[nH]c(=O)c(CNc3ccc(C)c(C)c3)cc2c1 returned UCH37 inh -3.5, LANA-H2A inh -2.2, ALR inh -28, HNF4A DNA FP -1.5 and Beta2AR agonist 12.
CC(C)(C)NC(=O)/C(=C\C=C\c1ccccc1)NC(=O)c1ccc([N+](=O)[O-])cc1 was read as UCH37 inh 7.0, LANA-H2A inh -3.6, ALR inh -1, E coli growth 0.71, HNF4A DNA FP -0.5, FGF22 binding inactive and Beta2AR agonist -9.
`OCC1(C2=NOC(O)(C(F)(F)F)C2)CCCCC1` (centres undefined) gave UCH37 inh -0.9, LANA-H2A inh 2.6, ALR inh -2, E coli growth 0.72, HNF4A DNA FP 1.4 and Beta2AR agonist 6.
COCCn1c(-c2ccccc2)cnc1N was read as UCH37 inh 0.5, LANA-H2A inh 2.6, E coli growth 0.67, HNF4A DNA FP -1.4 and Beta2AR agonist -3.
`Cn1c(N)c(C(=O)COC(=O)CNC(=O)c2ccc(Cl)cc2Cl)c(=O)n(C)c1=O` gave UCH37 inh -0.1, E coli growth 0.69, HNF4A DNA FP -4.5, FGF22 binding inactive and Beta2AR agonist -4.
Screening C[C@@H]1CN([C@@H](C)CO)C(=O)c2cccc(NS(C)(=O)=O)c2O[C@H]1CN(C)Cc1ccc(Oc2ccccc2)cc1 returned UCH37 inh 0.8, LANA-H2A inh -2.0, ALR inh -5, HNF4A DNA FP 1.4, FGF22 binding inactive and Beta2AR agonist -10.
For O=[N+]([O-])c1ccccc1C(O)Cc1ccccn1 (centres undefined) the results were UCH37 inh 1.3, E coli growth 0.68, HNF4A DNA FP 0.3, FGF22 binding inactive and Beta2AR agonist -5.
`C=CCSc1nnc(Cn2c(=O)sc3ccccc32)n1C` gave UCH37 inh -2.0, LANA-H2A inh 0.8, ALR inh 0, E coli growth 0.69, HNF4A DNA FP 1.8, FGF22 binding inactive and Beta2AR agonist -26.
For COc1ccc(C(C)(C)C)cc1S(=O)(=O)n1ccnc1C the results were UCH37 inh 2.6, LANA-H2A inh 5.1, E coli growth 0.67, HNF4A DNA FP 0.3, FGF22 binding inactive and Beta2AR agonist -2.
Screening CCC(=O)c1cn(CC(=O)Nc2ccccc2F)c2ccccc12 returned UCH37 inh 1.9, LANA-H2A inh -0.1, ALR inh 3, E coli growth 0.62, HNF4A DNA FP -2.0, FGF22 binding inactive and Beta2AR agonist 6.
Cn1c(SCC(=O)Nc2nccs2)nnc1-c1ccccn1 was read as UCH37 inh 1.8, LANA-H2A inh 4.3, ALR inh -2, E coli growth 0.65, HNF4A DNA FP -0.6, FGF22 binding inactive and Beta2AR agonist -1.
O=C(CN1C(=O)NC2(CCCc3ccccc32)C1=O)c1ccccc1F (centres undefined) was read as UCH37 inh -2.1, LANA-H2A inh 3.9, ALR inh 12, E coli growth 0.66, HNF4A DNA FP 1.2, FGF22 binding inactive and Beta2AR agonist 0.
`COc1cccc(-c2noc(C3CCCN(C(=O)CC(C)(C)C)C3)n2)c1` (centres undefined) gave UCH37 inh -2.2, LANA-H2A inh 4.5, ALR inh -3, E coli growth 0.68, HNF4A DNA FP -2.1, FGF22 binding inactive and Beta2AR agonist -2.
Screening CCCCc1nc2sc3c(c2c(=O)n1NC(=O)c1ccco1)CC(C)(C)OC3 returned UCH37 inh 1.2, LANA-H2A inh -4.9, E coli growth 0.69, HNF4A DNA FP 2.2, FGF22 binding inactive and Beta2AR agonist -7.
For N#CC(=C(O)CN1CCN(c2ccccc2F)CC1)c1nc(-c2ccccc2)cs1 the results were UCH37 inh 0.6, E coli growth 0.68, HNF4A DNA FP -1.0, FGF22 binding inactive and Beta2AR agonist 10.
Screening Cc1nn(CC2CC2)c(=O)n1-c1ccccc1 returned UCH37 inh 2.5, LANA-H2A inh -2.9, ALR inh -33, E coli growth 0.7, HNF4A DNA FP 4.3, FGF22 binding inactive and Beta2AR agonist 1.
`Cc1csc(NC(=O)CSc2nc(=O)[nH]c3c2CCCC3)n1` gave UCH37 inh 1.8, LANA-H2A inh 1.4, ALR inh inconclusive, E coli growth 0.68, HNF4A DNA FP 1.6, FGF22 binding inactive and Beta2AR agonist -20.
For Cc1ccc(C)c(C(=O)CC2(O)C(=O)Nc3ccccc32)c1 (centres undefined) the results were UCH37 inh 4.3, LANA-H2A inh 0.4, ALR inh -15, E coli growth 0.69, HNF4A DNA FP -2.6 and Beta2AR agonist 36.
`COC(=O)c1c(C(=O)OC)c(-c2cccc(Cl)c2)n2c1CS(=O)C2` (centres undefined) gave UCH37 inh 5.5, LANA-H2A inh 2.3, ALR inh -11, E coli growth 0.65, HNF4A DNA FP -1.7, FGF22 binding inactive and Beta2AR agonist -1.
COc1ccc(NC(=O)CSCc2ccc(C#N)cc2)c(OC)c1 was read as UCH37 inh 0.3, LANA-H2A inh 0.5, ALR inh 98*, E coli growth 0.65, HNF4A DNA FP 0.9, FGF22 binding inactive and Beta2AR agonist 7.
COc1ccc(-c2nc3cc(C)ccn3c2NC2CCCCC2)cc1SC1CCCCC1 was read as UCH37 inh -198, E coli growth 0.66, HNF4A DNA FP 48*!, FGF22 binding inactive and Beta2AR agonist -4.
O=C(Nc1ccc(OCC(F)(F)C(F)F)c(C(F)(F)F)c1)c1ccc(Cl)cc1 was read as LANA-H2A inh 3.2, ALR inh -22, HNF4A DNA FP 3.3 and Beta2AR agonist 4.
Fc1ccc(C(c2nnnn2Cc2ccco2)N2CCN(C3CCCCC3)CC2)cc1 (centres undefined) was read as UCH37 inh 3.2, LANA-H2A inh 1.0, ALR inh -6, E coli growth 0.74, HNF4A DNA FP 0.3 and Beta2AR agonist 12.
Screening O=C(Nc1ccc(Cl)cc1)NC1CCS(=O)(=O)C1 (centres undefined) returned UCH37 inh 6.1, LANA-H2A inh 6.2, ALR inh -1, E coli growth 0.71, HNF4A DNA FP -3.4 and Beta2AR agonist -5.
CCN(CC(=O)Nc1ccc(NC(C)=O)cc1)C(=O)c1cccc2ccccc12 was read as UCH37 inh 0.9, LANA-H2A inh -3.3, ALR inh -1, E coli growth 0.65, HNF4A DNA FP 2.0, FGF22 binding inactive and Beta2AR agonist -3.
Nc1c(C(=O)Nc2ccccc2)c2nc3ccccc3nc2n1-c1ccc(O)cc1 was read as UCH37 inh -11, LANA-H2A inh 1.5, E coli growth 0.73, HNF4A DNA FP -2.4, FGF22 binding inactive and Beta2AR agonist 1.
`O=C(CSC1CC(=O)N(CCc2ccccc2)C1=O)Nc1ccc(Br)cc1` (centres undefined) gave UCH37 inh 1.2, LANA-H2A inh 1.0, ALR inh 21, E coli growth 0.73, HNF4A DNA FP -1.3 and Beta2AR agonist 9.
Screening COc1ccc(C(=O)Nc2cccc(/C(C)=N/NC(=O)c3ccc([N+](=O)[O-])cc3)c2)cc1OC returned LANA-H2A inh 2.2, ALR inh 8, HNF4A DNA FP -4.5 and Beta2AR agonist 2.
For CCc1cccc(CC)c1C(O)c1cccnc1 (centres undefined) the results were UCH37 inh 4.5, LANA-H2A inh -1.5, E coli growth 0.72, HNF4A DNA FP 1.7 and Beta2AR agonist 0.

4 compounds out of the list, arranged by molecular weight, rising:
CC(=NC1CC1)C1=C(O)c2ccccc2C1=O was read as UCH37 inh 6.5, LANA-H2A inh -5.2, ALR inh -18, E coli growth 0.68, HNF4A DNA FP 0.1 and Beta2AR agonist 2.
Screening O=C(Nc1ccc(Cl)cc1)NC1CCS(=O)(=O)C1 (centres undefined) returned UCH37 inh 6.1, LANA-H2A inh 6.2, ALR inh -1, E coli growth 0.71, HNF4A DNA FP -3.4 and Beta2AR agonist -5.
`COC(=O)c1c(C(=O)OC)c(-c2cccc(Cl)c2)n2c1CS(=O)C2` (centres undefined) gave UCH37 inh 5.5, LANA-H2A inh 2.3, ALR inh -11, E coli growth 0.65, HNF4A DNA FP -1.7, FGF22 binding inactive and Beta2AR agonist -1.
Fc1ccc(C(c2nnnn2Cc2ccco2)N2CCN(C3CCCCC3)CC2)cc1 (centres undefined) was read as UCH37 inh 3.2, LANA-H2A inh 1.0, ALR inh -6, E coli growth 0.74, HNF4A DNA FP 0.3 and Beta2AR agonist 12.

Additional compounds
For CCOC(=O)C1=C(C)Nc2ccccc2N=C1NC(=O)Cc1ccc(OC)cc1 the results were UCH37 inh -30, LANA-H2A inh -1.6, ALR inh -2, E coli growth 0.7, HNF4A DNA FP -0.2 and Beta2AR agonist 0.
`O=C(O)c1ccc2c(c1)OCCOCCOCCOCCOCCO2` gave UCH37 inh 2.8, LANA-H2A inh 3.1, ALR inh -1, E coli growth 0.64, HNF4A DNA FP -1.6, FGF22 binding inactive and Beta2AR agonist -1.
For C=CCNc1oc(-c2ccc(Cl)cc2)nc1C#N the results were UCH37 inh 4.3, E coli growth 0.67, HNF4A DNA FP -0.2, FGF22 binding inactive and Beta2AR agonist 5.
For Cc1nn(C(=O)c2cccnc2)c(C)c1C the results were UCH37 inh 1.8, LANA-H2A inh 6.0, ALR inh -11, E coli growth 0.7, HNF4A DNA FP 3.5 and Beta2AR agonist -13.
`C/C(CC(=O)Nc1ccc(Cl)cc1Cl)=N\NC(=O)C(=O)NCCO` gave LANA-H2A inh 5.5, ALR inh 15, HNF4A DNA FP -3.3, FGF22 binding inactive and Beta2AR agonist -1.
